# TSHR agonist: activates the human thyroid stimulating hormone receptor; AID 926; HEK293-CNG-TSHR cells (CNG channel as cAMP sensor), membrane potential dye, cAMP; P16473; 73,000 tested, 0.48% active; Potency, µM (top dose mostly 57.1 µM), for the others: top-dose activation, actives largely listed as activators; active = well fitted activation curve of enough size with the parental cells flat; inconclusive = any curve in the parental cells; inactive = parental cells flat and receptor cells flat or falling; also: potency is read from the fitted curve at half-maximal effect; % of control where 0% means no effect; weak receptor curves with flat parental cells got no call and are not listed
# Target sequence (P16473 whole entry, looked up): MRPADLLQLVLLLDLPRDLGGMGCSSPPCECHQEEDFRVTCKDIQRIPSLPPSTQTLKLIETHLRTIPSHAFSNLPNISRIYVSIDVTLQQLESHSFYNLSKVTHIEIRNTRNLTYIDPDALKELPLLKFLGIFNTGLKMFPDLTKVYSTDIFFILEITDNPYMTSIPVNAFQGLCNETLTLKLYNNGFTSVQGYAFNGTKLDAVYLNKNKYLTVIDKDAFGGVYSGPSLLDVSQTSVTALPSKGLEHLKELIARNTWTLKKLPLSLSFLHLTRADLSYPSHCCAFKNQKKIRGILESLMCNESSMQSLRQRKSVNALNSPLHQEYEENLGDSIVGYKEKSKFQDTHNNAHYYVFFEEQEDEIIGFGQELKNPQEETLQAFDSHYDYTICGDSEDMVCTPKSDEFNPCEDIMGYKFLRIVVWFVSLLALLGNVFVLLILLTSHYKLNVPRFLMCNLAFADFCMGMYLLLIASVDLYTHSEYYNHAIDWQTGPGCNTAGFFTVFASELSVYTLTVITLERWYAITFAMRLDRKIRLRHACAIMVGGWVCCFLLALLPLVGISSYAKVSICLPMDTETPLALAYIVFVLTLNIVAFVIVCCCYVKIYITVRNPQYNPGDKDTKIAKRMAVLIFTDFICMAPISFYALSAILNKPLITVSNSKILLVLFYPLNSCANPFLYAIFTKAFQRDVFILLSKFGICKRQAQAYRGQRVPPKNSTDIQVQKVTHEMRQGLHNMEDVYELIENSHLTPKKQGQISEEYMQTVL
#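 HEK 293 cells stably expressing TSHR and a modified CNG channel, with CNG-only parental cells as counterscreen, were preloaded 60 min at room temperature with membrane potential dye containing 100 uM RO 20-1724. Compound exposure was 30 min, and depolarization was read as fluorescence at 590 nm.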
# A488 fluor: A488 region autofluorescence | compound autofluorescence, A488 spectral region, dye equivalency; stronger effect = higher value | max dye equivalency, M | 59,000 tested, 0.1% active; active = above 10 nM dye equivalent; inconclusive = 1 to 10 nM; inactive = 1 nM or less; about half of its hits are not listed in these tables;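 also: highest value over a series up to 38 µM; compound alone in buffer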
#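 Compounds pin-transferred into 100 mM Tris buffer, pH 8.0, incubated 15 min at room temperature, then imaged with 480 nm excitation/540 nm emission filters. Fluorescence converted to Alexa 488 dye-equivalent concentration via an on-plate six-point A488 standard curve.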
# AID923: qHTS Assay for Allosteric/Competitive Inhibitors of Caspase-1: Spectroscopic Profiling in AFC Spectral Region; compound fluorescence, AFC spectral region (405/520 nm); almost no hit is shown here; Potency, µM (highest dose often 57.5 µM), inactives show at the top dose fluorescence increase, hits mostly activators; 75,000 tested, 1.1% active; AID 923, 2007; active = well fitted activation curve with a large enough effect; inconclusive = small, poorly fitted or top-dose-only effect;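 also: potency is read from the fitted curve at half-maximal effect; 0% is about no effect; scaled to a free AFC standard on each plate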
#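 Titrations up to 57 uM read every 20 sec for 3 min (405/520 nm) with 50 nM caspase 1 and 5 uM Ac-WEHD-AFC, pH 7.5 HEPES buffer. Fluorescence-vs-time intercept gave baseline, scaled against on-plate AFC standard.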
# A647 autofl: compound autofluorescence in A647 spectral region; 59,000 tested, under 10 active; max dye-equivalent concentration, M; AID 592; Compound fluorescence, A647 channel (570/671 nm), Tris buffer; active means above 1 µM dye equivalent; inconclusive means 0.1 to 1 µM; inactive means 0.1 µM or less;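 also: values scaled relative to a standard on each plate; highest value over a series up to 38 µM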
#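 Fluorescence read (570 nm ex, 671 nm em) after 15 min RT incubation of compounds in 100 mM Tris buffer, pH 8.0; values expressed as dye-equivalent concentration against a six-point A647 standard series on each plate.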
# Resorufin fluor: compound fluoresces in the resorufin spectral region | max dye-equivalent concentration, M | 59,000 tested, 0.04% active | Compound fluorescence, resorufin region 547/598 nm, buffer; stronger effect = higher value; active = above 10 nM dye equivalent; inconclusive = 1 to 10 nM; inactive = 1 nM or less; a few of its hits are not listed in these tables; also: highest value over a series up to 38 µM
#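 Dye-equivalent concentration values derive from comparing each well's 547/598 nm fluorescence against resorufin standards included on every plate. Incubation was 15 min at room temperature in 100 mM Tris, pH 8.0.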
# * = called active by the depositor; i = inactive; ? = inconclusive; nt = not tested or not shown; [ ] = dose if it differs, or a comment. An excerpt. The share of hits here may be higher or lower than overall.
Structure	TSHR agonist	A488 fluor	AID923	A647 autofl	Resorufin fluor
Cc1cccc(NC(=O)Cn2nnc(-c3ccc(CN4CCCC4)cc3)n2)c1C	10.1%	i	0.5%	1.1e-08	i
O=C(O)Cc1cccc2c(=O)cc(-c3ccccc3)oc12	2.3%[11.4 µM]	i	-1.5%[11.5 µM]	2.09e-08	i
COc1ccc(-c2c(C)nn3c(N4CCC(C(=O)N5CCCCC5)CC4)cc(C)nc23)cc1OC	0.1%	nt	2.2%	nt	nt
COc1cccc(NC(=O)CCCn2c(=O)[nH]c3ccccc3c2=O)c1	?	i	2.4%	3.3e-09	i
COC(=O)c1sc(N)c(C(=O)OC)c1COC(=O)c1c(C)noc1C	?	i	-0.7%	9.9e-09	i
CCOc1ccc(N(C(C)=O)C2C=CS(=O)(=O)C2)cc1 (configuration not stated)	1.5%	nt	0.3%	nt	nt
CN(C)S(=O)(=O)c1ccc2c(c1)c(=O)c(C(=O)NCCCN1CCCCCC1)cn2C	-1.7%	nt	2.7%	nt	nt
O=C(Nc1ccncc1)c1ccc2c(c1)OCCO2	-1.8%	nt	0.0%	nt	nt
O=C(Nc1ccon1)c1csc2c1CCCC2	1.8%	i	0.2%	2.03e-08	i
CC1CN(C2CCCCC2)c2nc3c(c(=O)[nH]c(=O)n3C)n2C1 (configuration not stated)	-19.7%	i	-0.8%	1.38e-08	i
O=C(c1ccco1)N1CCC[C@@]2(CCN(c3ccccn3)C2)C1	?	i	0.3%	2.8e-09	i
COc1ccccc1OCCSc1nc2ccccc2c(=O)[nH]1	15.8%	nt	-0.7%	nt	nt
COC(=O)NC(/C(C(=O)OC)=C(\C)NCc1ccccc1)c1cccc(F)c1 (configuration not stated)	22.7%[11.4 µM]	nt	-1.1%[11.5 µM]	nt	nt
Cn1c(=O)oc2cc(S(=O)(=O)NCCC(=O)NCCc3ccc(Cl)cc3)ccc21	26.0%	i	-0.5%	2.59e-08	i
CCOC(=O)CNc1nc(C#N)nc(N2CCOCC2)n1	15.0%	i	1.9%	1e-09	i
CCc1sc(C(=O)Nc2ccsc2C(=O)OC)cc1Br	27.3%	i	4.3%	2.5e-08	i
CCCC[C@@H]1C[C@H]1C(NC(=O)c1cccnc1)c1ccc(-c2ccccc2)cc1 (some centres not stated)	?	nt	-0.4%	nt	nt
O=C(O)CCC(=O)c1ccc2ccc3cccc4ccc1c2c34	1.6%[11.4 µM]	i	15.1%[11.5 µM]	1e-09	i
O=C(Cn1c(C(=O)NCC2CCCO2)cc2sccc21)c1ccccc1 (configuration not stated)	6.1%	i	2.4%	1e-08	i
N/C(CN1CCCC1=O)=N\O	-2.0%	i	-0.7%	9.8e-09	i
CCOc1cc2c(cc1OCC)C(C(=O)O)C(c1cc(OC)c(OC)c(OC)c1)N(C)C2=O (configuration not stated)	1.3%[11.4 µM]	i	1.0%	2.7e-08	i
CCCCOc1ccccc1Cn1c(=O)oc2ccccc21	?	i	-1.3%	2.5e-09	i
Cc1cc(C)n(-c2ncnc3sc(C)c(C)c23)n1	nt	i	nt	7.21e-08	i
CCCCN(C(=O)NC(=O)Nc1ccccc1C)S(C)(=O)=O	-1.7%[11.4 µM]	i	-0.6%	3.62e-08	i
COc1ccccc1NC(=O)Nc1ncccc1C	11.8%	i	0.9%	1e-09	i
Cc1ccc(-c2nc3c(=O)n(C)c4ccccc4c3o2)cc1	?	i	0.5%	1e-09	i
Cc1cc(C)c(NC(=O)CS(=O)CC(=O)N2CCN(c3ccc(F)cc3)CC2)c(C)c1 (configuration not stated)	-3.9%	i	-1.9%	5e-09	i
CCNS(=O)(=O)c1cc(Br)ccc1OC	-1.5%	i	0.2%	1e-09	i
O=C(NC1CCS(=O)(=O)C1)N1CCCCC1 (configuration not stated)	nt	i	nt	1.2e-08	i
C=CCN(C(=O)CNC(=O)c1ccco1)C(C(=O)NC1CCCCC1)c1ccccc1F (configuration not stated)	27.0%	i	-0.2%	1.7e-08	i
O=C(COC(=O)C1COc2ccccc2O1)NC(=O)Nc1ccc2c(c1)OCCO2 (configuration not stated)	5.2%	i	0.0%	3.04e-08	i
N#Cc1ccc2ccn(CC(=O)N3CCCc4ccccc43)c2c1	nt	i	-0.9%	2.27e-08	i
Cc1[nH]c2ccc(Br)cc2c(=O)c1CN1CCOCC1	-0.7%	i	-2.1%	3.6e-09	i
O=C(O)Cn1nnnc1-c1ccc(F)cc1	11.0%	i	-0.3%	1e-09	i
CC1(C(=O)NCc2cccnc2)CCC(=O)N1Cc1cccs1 (configuration not stated)	-8.8%	nt	-2.2%	nt	nt
CC1CCN(CCCNC(=O)c2n[nH]c(=O)c3ccccc23)CC1	1.8%	i	1.7%	1e-09	i
O=C(Nc1cccc(C(=O)N2CCOCC2)c1)c1ncn[nH]1	-3.7%	i	-0.6%	1e-09	i
O=C(O)COc1ccc(-c2nnn(Cc3ccccc3F)n2)cc1	3.5%	i	0.7%	1e-09	i
O=C(O)/C(Cc1cn[nH]n1)=N\O	-0.1%[11.4 µM]	i	-0.2%[11.5 µM]	1e-09	i
O=C(CCc1ccccc1)Nc1nc2ccc(S(=O)(=O)N3CCOCC3)cc2s1	2.2%	i	-2.3%	1.2e-08	i
O=C1NC(=S)S/C1=C1\Sc2ccccc2N1CCCS(=O)(=O)O	-1.6%	i	12.7%	4.5e-09	i
O=C(Nc1ccccc1)NC1(C(=O)NCc2ccco2)CCCCC1	0.4%	i	1.5%	4.4e-09	i
CCn1nnnc1SCC(=O)N1CCOCC1	-4.7%	i	-1.3%	6e-09	i
N=c1c2c(-c3ccccc3)c(-c3ccccc3)n(Cc3ccco3)c2ncn1CCN1CCOCC1	?	i	-0.6%	1e-09	i
Nc1nc(-c2cccnc2)cc(-c2cc(-c3cccnc3)nc(N)n2)n1	-3.5%[11.4 µM]	i	-1.3%[11.5 µM]	4.5e-09	i
COc1ccc(CCNC(=O)CCNS(=O)(=O)c2ccc3c(c2)CCN3C(C)=O)cc1OC	?	i	0.6%	5.2e-09	i
CCOC(=O)C1CCN(C(=O)CN(C)S(=O)(=O)c2cc(C)ccc2OC)CC1	3.7%	i	-1.3%	1e-09	i
Cc1cc2c(cc(C(=O)N3CCC(C(=O)NC4CCCC4)CC3)n2Cc2c(F)cccc2Cl)o1	-2.5%	nt	-1.5%	nt	nt
Oc1ccc2ccccc2c1C=NCc1c(O)ccc2ccccc12	6.4%[11.4 µM]	i	2.9%[11.5 µM]	7.2e-09	i
COc1ccccc1NC(=O)CN1CCCCC1	-14.7%	i	0.9%	4.44e-08	i
Cc1cc(C2(c3cc(C)c(O)c(C(=O)O)c3)OS(=O)(=O)c3ccccc32)cc(C(=O)O)c1O	-0.7%[11.4 µM]	i	-1.4%[11.5 µM]	1e-09	i
COc1ccc(NC2=NCCC(=O)N2Cc2cccs2)cc1	-4.0%	i	-1.6%	6e-09	i
COc1ccccc1CNC(=O)COC(=O)c1ccc(NC(N)=O)cc1	-4.3%	i	-1.6%	2.8e-09	i
Cn1nc(-c2ccc(N3CCOCC3)c(NS(=O)(=O)c3ccccc3)c2)c2ccccc2c1=O	32.1%	i	-0.9%	3.98e-08	i
COC(=O)CSc1nc2cc(Cl)ccc2c(=O)n1C1CCCC1	?	i	0.0%	1e-09	i
CC(=O)Nc1ccc(S(=O)(=O)N(C)c2ccc(O)cc2)cc1	-1.4%	i	-0.5%	1.02e-08	i
O=C(O)CCCC[C@H]1SC[C@H]2NC(=O)N[C@@H]21	-14.8%[25.6 µM]	i	-0.7%[25.7 µM]	1.6e-08	i
COc1ccc(CNC(=O)CSc2nnc(-c3ccc(NC(C)=O)cc3)n2C)cc1	-11.3%	i	-0.3%	1e-09	i
CC(=O)N1CCc2cc(S(=O)(=O)CCC(=O)N3CCN(C(=O)c4ccco4)CC3)ccc21	2.1%	i	0.3%	1e-09	i
COc1ccc(-c2csc(NC(=O)C3CCCO3)n2)cc1 (configuration not stated)	?	i	0.5%	1e-09	i

# The list goes on.
Structure	TSHR agonist	A488 fluor	AID923	A647 autofl	Resorufin fluor
Cc1ccc(C(C)NC(=O)c2cc(C)oc2C)cc1 (configuration not stated)	-15.0%	i	2.2%	2.1e-09	i
CCN1CCN(CCNC(=O)c2ccc(CS(=O)(=O)c3c(Cl)cccc3Cl)o2)CC1	-2.3%	nt	-1.7%	nt	nt
COc1ccc(-c2noc(COc3ccccc3OC)n2)cc1OC	7.6%	nt	-0.6%	nt	nt
COC(=O)C1C(c2ccccc2)C(C(=O)N2CCN(C)CC2)C1c1ccccc1 (configuration not stated)	?	i	-0.6%	5.22e-08	i
OCc1nc2ccccc2n1CCCOc1ccccc1	22.4%	nt	1.9%	nt	nt
C=CCN1C(=O)C2C(C(=O)NC)C3(C)C=CC2(O3)C1C(=O)NCc1ccc(OC)cc1 (configuration not stated)	-0.6%	i	-1.2%	5.48e-08	i
COc1ccc(CNC(=O)C(c2ccco2)N(Cc2cccs2)C(=O)Cc2cccs2)cc1 (configuration not stated)	?	i	1.4%	1e-09	i
COC(=O)c1cc2oc(C)cc2n1CC(=O)N1CCCc2ccccc21	nt	i	-4.6%	1.7e-09	i
Cc1ccc(-c2nn3c(C)nnc3s2)cc1NC(=O)c1ccc(Br)o1	32.0%	nt	1.3%	nt	nt
Cc1nc2nc(COc3ccccc3)nn2c(C)c1Cl	8.1%	i	-2.7%	1.65e-08	i
COCCn1c(-c2ccc(OC)cc2)cnc1SCC(=O)Nc1cc(C)on1	?	i	1.9%	1e-09	i
Cc1onc(-c2c(F)cccc2Cl)c1C(=O)NCc1ccccn1	-5.3%	nt	-0.3%	nt	nt
CCn1nc(C(=O)OCC(=O)N2c3ccccc3CC2C)c2ccccc2c1=O (configuration not stated)	nt	i	-1.2%	3.27e-08	i
Cc1cc(CN2C(=O)c3ccccc3C2=O)on1	-3.0%	i	1.4%	1e-09	i
CCC/C(O)=C1\C(=O)CC(C)(C)CC1=Nc1ccc(OC)cc1OC	?	i	-1.1%	3.08e-08	i
Nc1cc(OC(=O)c2ccco2)nn1S(=O)(=O)c1ccc(F)cc1	9.4%	i	1.4%	5.1e-09	i
CCOc1nnnc2c1sc1nc(N3CCOCC3)c3c(c12)CC(C)(C)OC3	nt	i	nt	1e-09	i
O=C1C2=C(SCCS2)C(=O)N1c1ccccc1	-9.3%	nt	-0.5%	nt	nt
CCS(=O)(=O)Nc1ccc(-c2nnc(SCC(=O)OC)o2)cc1	-40.7%[inhibitor]	i	-4.0%	4.66e-08	i
COc1cccc(C2CC(=O)NC3=C2C(=O)CCC3)c1 (configuration not stated)	-3.4%	i	1.8%	2.33e-08	i

# Random excerpt: 2 compounds from above.
Structure	TSHR agonist	A488 fluor	AID923	A647 autofl	Resorufin fluor
CCS(=O)(=O)Nc1ccc(-c2nnc(SCC(=O)OC)o2)cc1	-40.7%[inhibitor]	i	-4.0%	4.66e-08	i
Cc1nc2nc(COc3ccccc3)nn2c(C)c1Cl	8.1%	i	-2.7%	1.65e-08	i

# Remaining list, next part
Structure	TSHR agonist	A488 fluor	AID923	A647 autofl	Resorufin fluor
COc1ccc(S(=O)(=O)NCC(c2cccnc2)N2CCN(c3ccccc3OC)CC2)cc1C (configuration not stated)	5.4%	i	1.8%	1e-09	i
COc1cccc(NC(=O)C2CC(=O)N(C)C(=Nc3cccc(F)c3)S2)c1 (configuration not stated)	-31.5%[inhibitor]	i	0.9%	1.27e-08	i
CCOC(=O)c1ccc(NCn2c(=O)oc3ccccc32)cc1	-21.4%	nt	1.0%	nt	nt
Cc1nc2cnc(N3CCNCC3)nc2n(CCc2ccccc2)c1=O	-2.3%	i	8.2%	3.2e-09	i

# High-throughput results (PubChem)
